Screening results: PubChem BioAssay, National Center for Advancing Translational Sciences (NCATS)
KAT2A inh: GCN5L2 (KAT2A) acetyltransferase inhibition; Potency, µM (highest dose often 58.9 µM), inactives show at the top dose activity change, negative = inhibition, most hits filed as inhibitors; AID 504327; Q92830; 390,000 compounds, 0.21% hits; GCN5L2 HAT assay, ThioGlo1 CoA-SH fluorescence; active means well fitted inhibition curve with a large enough effect; inconclusive means small, poorly fitted or top-dose-only effect, or another doubt; inactive means no such curve, though single readings can be large or run the other way
Target sequence (Q92830 whole entry, looked up): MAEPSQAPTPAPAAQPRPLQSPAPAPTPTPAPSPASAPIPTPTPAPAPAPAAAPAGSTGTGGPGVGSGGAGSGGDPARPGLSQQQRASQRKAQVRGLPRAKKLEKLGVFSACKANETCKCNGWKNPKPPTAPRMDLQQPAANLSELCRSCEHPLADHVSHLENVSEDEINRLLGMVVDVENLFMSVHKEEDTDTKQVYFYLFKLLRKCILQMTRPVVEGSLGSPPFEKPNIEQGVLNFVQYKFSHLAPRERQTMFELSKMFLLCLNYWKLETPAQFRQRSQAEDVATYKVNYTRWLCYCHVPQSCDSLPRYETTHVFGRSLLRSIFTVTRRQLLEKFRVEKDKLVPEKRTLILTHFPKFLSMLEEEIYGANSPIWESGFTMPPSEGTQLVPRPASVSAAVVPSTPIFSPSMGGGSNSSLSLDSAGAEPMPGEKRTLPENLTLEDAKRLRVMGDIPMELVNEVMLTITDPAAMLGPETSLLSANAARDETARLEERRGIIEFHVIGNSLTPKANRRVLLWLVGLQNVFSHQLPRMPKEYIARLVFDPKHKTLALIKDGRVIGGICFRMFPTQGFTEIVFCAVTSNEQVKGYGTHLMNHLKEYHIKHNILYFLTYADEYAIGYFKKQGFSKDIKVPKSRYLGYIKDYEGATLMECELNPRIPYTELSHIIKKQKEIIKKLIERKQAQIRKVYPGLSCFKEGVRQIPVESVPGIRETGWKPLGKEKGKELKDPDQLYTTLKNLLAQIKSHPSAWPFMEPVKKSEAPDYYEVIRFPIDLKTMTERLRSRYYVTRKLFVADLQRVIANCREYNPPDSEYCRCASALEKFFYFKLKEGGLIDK
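Titration-based screen in which CoA formation is detected via maleimide probe ThioGlo1 (50uM) turning fluorescent on thiol reaction; substrates H3(1-25) 75uM and acetyl-CoA 70uM, GCN5L2 20nM, 20 min incubation at room temperature.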
The depositor's hits bear a star; [ ] = remark or other dose. On the % scale 0 is the no-effect control and ±100 the full control effect; potency means the concentration at half of the fitted maximal effect. These rows are one share of the data; most or all hits stand in other tables.

How did Cc1cc(NC(=O)C2CCCN(S(=O)(=O)c3cn(C)cn3)C2)ccc1Br (centres undefined) do in these assays?
KAT2A inh: 33%[activator]

What do the screens show for `O=C1COc2ccc(C(=O)CSc3nnnn3-c3ccccc3)cc2N1`?
KAT2A inh: 0%

Results for CCC(Sc1nc(N)cc(=O)[nH]1)C(=O)Nc1cc(C)on1 (centres undefined) ?
KAT2A inh: -2%

What do the screens show for `CC1(C)Cc2nc3sc(C(N)=O)c(N)c3cc2CO1`?
KAT2A inh: 1%

Results for Oc1ccc(C[C@H]2CNCCN2CCCCC2CCCCC2)cc1 ?
KAT2A inh: -10%

Results for COc1ccccc1N1CCN(C(=O)CN2C(=O)COc3ccc(S(=O)(=O)N4CCCCCC4)cc32)CC1 ?
KAT2A inh: 1%

How did COc1ccccc1-c1nnc(SCC(=O)NCc2cccs2)n1N do in these assays?
KAT2A inh: -4%

How did C=CCOC(=O)C1=C[C@H](c2csc3ccccc23)[C@@H](CCCO)[C@H](OCC)O1 do in these assays?
KAT2A inh: -10%

Results for CCC1Nc2ncnc(N3CCN(c4ccccc4)CC3)c2N(Cc2ccccc2)C1=O (centres undefined) ?
KAT2A inh: -6%

Results for O=S(=O)(c1cc(Cl)ccc1Cl)n1nnc2ccccc21 ?
KAT2A inh: -3%

What do the screens show for `O=C(NCc1ccco1)c1c[nH]c2ccc(S(=O)(=O)Nc3ccc(F)cc3F)cc2c1=O`?
KAT2A inh: -7%

How did O=C(Nc1cc(C(F)(F)F)ccc1Cl)C(Sc1n[nH]c(=O)[nH]c1=O)c1ccccc1 (centres undefined) do in these assays?
KAT2A inh: -3%

Results for COC(=O)c1cc(-c2cccc(OC)c2)on1 ?
KAT2A inh: -18%

How did COc1ccccc1-n1cnc2cc(NC(C)=O)ccc21 do in these assays?
KAT2A inh: -1%

Results for Cc1ccc(NC(=O)c2c(F)cccc2Cl)cc1S(=O)(=O)N1CCOCC1 ?
KAT2A inh: -4%

What do the screens show for `CCCOc1ccc(CN(CCO)CCO)cc1C(=O)OC`?
KAT2A inh: 0%

Results for CCC/C=N/NC(=O)CNC(=O)c1ccccc1Cl ?
KAT2A inh: -14%

Results for CCOc1ccccc1N1CCN(c2nc3ccccc3nc2C(C#N)C(=O)OC(C)C)CC1 (centres undefined) ?
KAT2A inh: -5%

Results for CCN(Cc1ccccc1)C(=O)Cn1c(=O)n(CC(=O)NCc2ccco2)c(=O)c2sccc21 ?
KAT2A inh: -3%

How did O=C(NCc1ccc(F)cc1)c1cc2cccc3c2n1CCS3 do in these assays?
KAT2A inh: -3%

How did CCN(CC)c1ccc(/C=N/N2CCN(Cc3ccccc3)CC2)cc1 do in these assays?
KAT2A inh: -13%

Results for COc1ccc(OC)c(-c2cc(C3CCN(C(=O)OC(C)(C)C)CC3)[nH]n2)c1 ?
KAT2A inh: -20%

Results for COc1ccc(C2C=C(Nc3ccccc3)C(=O)N2c2ccccc2)cc1OC (centres undefined) ?
KAT2A inh: -6%

Results for Cc1ccc(NC(=O)CSCc2cc(=O)n3cc(C)sc3n2)cc1 ?
KAT2A inh: -2%

Results for CC[C@H](C)[C@H](NC(N)=O)C(=O)Nc1ccc2c(c1)OCO2 ?
KAT2A inh: -17%

How did Cc1cccc(NC(=O)CN2C(=O)CCn3nc(-c4cccn4C)cc32)c1C do in these assays?
KAT2A inh: -9%

How did Cc1nn(C)c2c1c(C(F)(F)F)cc(=O)n2C(C)C(=O)NCc1ccccc1 (centres undefined) do in these assays?
KAT2A inh: 0%

Results for Cc1ccc2nc(-c3ccccc3NC(=O)CCC(=O)O)c(=O)[nH]c2c1 ?
KAT2A inh: -2%

Results for CCOC(=O)Cn1c(S(=O)(=O)Cc2ccc(F)cc2)nc(-c2ccccc2)c1-c1ccccc1 ?
KAT2A inh: -17%

How did COc1ccc(CN(CC(=O)NCc2ccc(F)cc2)C(=O)CCC(=O)Nc2cc(C)ccn2)cc1 do in these assays?
KAT2A inh: -6%

Overlap with the part before: 5 entries, then new ones.
How did Cc1cccc(NC(=O)CN2C(=O)CCn3nc(-c4cccn4C)cc32)c1C do in these assays?
KAT2A inh: -9%

How did Cc1nn(C)c2c1c(C(F)(F)F)cc(=O)n2C(C)C(=O)NCc1ccccc1 (centres undefined) do in these assays?
KAT2A inh: 0%

Results for Cc1ccc2nc(-c3ccccc3NC(=O)CCC(=O)O)c(=O)[nH]c2c1 ?
KAT2A inh: -2%

Results for CCOC(=O)Cn1c(S(=O)(=O)Cc2ccc(F)cc2)nc(-c2ccccc2)c1-c1ccccc1 ?
KAT2A inh: -17%

How did COc1ccc(CN(CC(=O)NCc2ccc(F)cc2)C(=O)CCC(=O)Nc2cc(C)ccn2)cc1 do in these assays?
KAT2A inh: -6%

What do the screens show for `COc1cc(NC(C)=O)c2ncccc2c1NC(C)=O`?
KAT2A inh: 33%[activator]

How did COc1ccccc1C(=O)N/C(=N/c1nc(C)cc(C)n1)Nc1ccccc1 do in these assays?
KAT2A inh: -9%

What do the screens show for `Cc1ccc(Cn2cc(S(=O)(=O)c3ccc(Cl)cc3)c(=O)c3cc4c(cc32)OCO4)cc1`?
KAT2A inh: -1%

What do the screens show for `O=C(Cn1nnc(-c2ccccc2NC(=O)c2cccs2)n1)Nc1ccccc1`?
KAT2A inh: -3%

What do the screens show for `CC(C)(C)c1ccc(C(=O)NC(=S)N2CCOCC2)cc1`?
KAT2A inh: 1%

How did O=C(c1ccc(Br)o1)N1CCN(C/C=C/c2ccccc2)CC1 do in these assays?
KAT2A inh: -3%

How did O=C(Cc1cccs1)Nc1cc(SCCO)cc([N+](=O)[O-])c1 do in these assays?
KAT2A inh: 1%

Results for COc1cc(NC(=O)Nc2ccc(Cl)c(Cl)c2)c(C(=O)O)cc1OC ?
KAT2A inh: -2%

Results for O=C(NCc1ccccc1Cl)c1ccc2nc(Cc3ccccc3)oc2c1 ?
KAT2A inh: -9%

What do the screens show for `COc1cccc(C(=O)Nc2cc3c(cc2C(C)=O)OCCO3)c1`?
KAT2A inh: -4%

What do the screens show for `CCOc1ccc(C(c2c(NC(=O)c3ccccc3)sc(C)c2C)N2CCN(C)CC2)cc1` (centres undefined)?
KAT2A inh: 0%

How did O=C1SC(c2ccccc2)=N/C1=C/c1ccco1 do in these assays?
KAT2A inh: -9%

How did O=C(N/N=C/c1cccc(Oc2ccccc2)c1)c1ccccc1Br do in these assays?
KAT2A inh: -11%

What do the screens show for `Cc1cc(Br)c(NC(=O)COC(=O)CC2CC3CCC2C3)c(Br)c1` (centres undefined)?
KAT2A inh: -9%

Results for CC(=O)OCc1cc2cccc(C)c2[nH]c1=O ?
KAT2A inh: 2%

Molecules from the list above containing a COOH group (2):
Results for Cc1ccc2nc(-c3ccccc3NC(=O)CCC(=O)O)c(=O)[nH]c2c1 ?
KAT2A inh: -2%

Results for COc1cc(NC(=O)Nc2ccc(Cl)c(Cl)c2)c(C(=O)O)cc1OC ?
KAT2A inh: -2%

The list goes on.
Results for O=C(/C=C/c1ccc([N+](=O)[O-])cc1)NCCN1C(=O)S/C(=C\c2ccc(F)cc2)C1=O ?
KAT2A inh: -9%

What do the screens show for `COc1ccc(-c2cc(-c3nnc(-c4ccncc4)o3)c3ccccc3n2)cc1`?
KAT2A inh: -6%

What do the screens show for `CCOc1ccccc1NC(=O)Nc1nnc(N2CCCCCC2)s1`?
KAT2A inh: -2%

How did CC1(C)CC(c2nc(-c3ccccc3)cs2)CCS1 (centres undefined) do in these assays?
KAT2A inh: -10%

Results for COc1cccc(NC(=O)CNC(=O)[C@@H]2Cc3ccccc3CN2C(=O)OC(C)(C)C)c1 ?
KAT2A inh: -10%

How did CNC(=O)c1ccccc1S(=O)c1ccccc1C#N (centres undefined) do in these assays?
KAT2A inh: -3%

What do the screens show for `C/C(CC(=O)NCC(C)C)=N\NC(=O)COc1cc(C)c(Br)cc1Br`?
KAT2A inh: 0%

How did CC(=O)N/C(=C/c1ccc(OS(=O)(=O)c2ccc(C)cc2)cc1)C(=O)Nc1ccc(C(=O)O)cc1 do in these assays?
KAT2A inh: -7%

What do the screens show for `CCN1CCc2c(sc(NC(=O)Nc3ccc(Cl)c(Cl)c3)c2C(N)=O)C1`?
KAT2A inh: -8%

How did O=C(NCc1ccccc1)c1cccc(N2CCCS2(=O)=O)c1 do in these assays?
KAT2A inh: 4%

What do the screens show for `CCSc1c(C(=O)NC)ccc2c1C(=O)c1ccccc1C2=O`?
KAT2A inh: 2%

Results for O=C(CCCn1c(=S)[nH]c2ccccc2c1=O)N1CCOCC1 ?
KAT2A inh: -5%

What do the screens show for `COCC(C)n1c(C)cc(C(=O)COC(=O)c2c(NC(C)=O)sc(C)c2C)c1C` (centres undefined)?
KAT2A inh: -10%

How did O=C(CN1C(=O)/C(=C/c2ccccc2)SC1=S)Nc1cccnc1 do in these assays?
KAT2A inh: -7%

Results for Cc1n[nH]c(=O)c2c(NC(=O)CSc3nc4ccccc4c(=O)n3-c3ccc(OC(F)F)cc3)oc(C)c12 ?
KAT2A inh: -5%

How did COc1cc(Cl)c(C)cc1NC(C)C(=O)Nc1cc(C(F)(F)F)ccc1N1CCOCC1 (centres undefined) do in these assays?
KAT2A inh: -3%

How did Cc1ccc(CCNC(=O)c2sc3ncccc3c2-n2cccc2)cc1 do in these assays?
KAT2A inh: 3%

Results for CCc1nc(C)cn1S(=O)(=O)c1cc([N+](=O)[O-])ccc1Cl ?
KAT2A inh: -10%

How did COCCNC(=O)COc1ccc(Oc2ccccc2)cc1 do in these assays?
KAT2A inh: 40%[activator]

Results for COc1ccc(C)cc1NC(=O)C(NCC1CCCO1)c1ccccc1 (centres undefined) ?
KAT2A inh: -2%

Results for Oc1ccc(C23CCCC2C2(CCCC2)c2ccc(O)cc2O3)c(O)c1 (centres undefined) ?
KAT2A inh: 1%

How did CCOc1ccccc1/C=N/NC(=O)c1ccc(Cn2cc([N+](=O)[O-])cn2)o1 do in these assays?
KAT2A inh: 4%

How did COc1ccc(-c2coc3cc(OC4OC(CO)C(O)C(O)C4O)cc(O)c3c2=O)cc1 (centres undefined) do in these assays?
KAT2A inh: -1%

What do the screens show for `O=c1[nH]cnc2cc(-c3ccc(Br)cc3)sc12`?
KAT2A inh: -1%

What do the screens show for `CCN(CC)C(=O)c1ccccc1NS(=O)(=O)c1ccc(C)cc1`?
KAT2A inh: -10%

How did CN(CCc1nc2ccccc2[nH]1)Cc1nc(CC2CC2)no1 do in these assays?
KAT2A inh: -15%

How did Cc1ccc(CNC(=O)CN2C(=O)C3(SCC(=O)N3c3cc(C)cc(C)c3)c3ccccc32)cc1 (centres undefined) do in these assays?
KAT2A inh: 19%

Results for COc1ccc(N(CC(=O)NC2CCCC2)C(=O)Cn2nnc(-c3ccc(C)o3)n2)cc1 ?
KAT2A inh: -5%

What do the screens show for `Cc1ccc(NS(=O)(=O)c2ccc(-c3cnc(C4CC4)o3)cc2)cc1`?
KAT2A inh: -7%

Results for Cc1cc(OC(=O)c2ccc(C(C)(C)C)cc2)c([N+](=O)[O-])c(=O)[nH]1 ?
KAT2A inh: -6%

Results for COc1ccccc1OCC(=O)Nc1ccc(Cl)cc1 ?
KAT2A inh: -1%

Results for CN(C1CCCCC1)S(=O)(=O)c1ccc(NC(=S)NC(=O)c2cccs2)cc1 ?
KAT2A inh: -21%

Results for O=C(Nc1ccccc1C(=O)NCCN1CCOCC1)c1ccco1 ?
KAT2A inh: -8%

How did CN1N=C2c3ccccc3CCC2C1c1ccc(C(F)(F)F)cc1 (centres undefined) do in these assays?
KAT2A inh: 0%

Results for CCOC(=O)c1c(C)oc2nc(C)nc(Nc3cc(C)ccc3OC)c12 ?
KAT2A inh: 28%

Results for O=C(c1cc(S(=O)(=O)N2CCCCC2)ccc1N1CCOCC1)N1CCN(Cc2ccccc2)CC1 ?
KAT2A inh: -14%

Results for COc1ccc(NC(=O)CSc2nc3ccccc3nc2N2CCC(C)CC2)cc1 ?
KAT2A inh: -15%

Results for NS(=O)(=O)c1ccc(N/C=C\C(=O)c2cccc3ccccc23)cc1 ?
KAT2A inh: -3%

What do the screens show for `COc1ccc(CCNC(=O)CCc2nnc(Cc3ccc4c(c3)OCO4)o2)c(OC)c1`?
KAT2A inh: inconclusive

What do the screens show for `CCc1ccc(CNC(=O)Cn2ccc3cc(S(=O)(=O)N4CCCCCC4)ccc32)cc1`?
KAT2A inh: -8%

Results for Cc1ccccc1Cc1c(C)nc2nc(SCC(=O)NCc3ccco3)nn2c1C ?
KAT2A inh: -6%

How did CCOC(=O)N1CCN(c2c(NCc3ccccn3)c(=O)c2=O)CC1 do in these assays?
KAT2A inh: -6%

What do the screens show for `O=C(/C=C/c1ccco1)Nc1ccc(Oc2ccccc2)cc1`?
KAT2A inh: -20%

Results for COc1ccc(OC)c(NC(=O)c2cccnc2Sc2cc(C)ccc2C)c1 ?
KAT2A inh: -4%

What do the screens show for `COCCCn1c(SCC(=O)NC2CCCC2)nnc1-c1cccs1`?
KAT2A inh: -4%

Results for CCOCCCNC(=O)Cn1cnc2sc(C)c(S(=O)(=O)N3CCN(c4ncccn4)CC3)c2c1=O ?
KAT2A inh: -3%

How did CN(c1ccccc1)S(=O)(=O)c1ccc(C(=O)NNC(=O)c2ccccc2F)cc1 do in these assays?
KAT2A inh: -4%

Results for CCOC(=O)c1[nH]c2ccccc2c1CCCN1C(=O)c2ccccc2C1=O ?
KAT2A inh: -17%

What do the screens show for `COC(=O)C(Cc1ccccc1)NS(=O)(=O)c1ccc(F)cc1Br` (centres undefined)?
KAT2A inh: -4%

Results for CN(CC(=O)NCc1ccc(Cl)cc1)S(=O)(=O)c1cccc2cccnc12 ?
KAT2A inh: -4%

Results for CCn1c(SCC(=O)Nc2nc(C)c(C)s2)nnc1-c1ccco1 ?
KAT2A inh: -1%

What do the screens show for `N#C/C(=C\c1ccc(Cl)cc1)c1nc(-c2ccco2)cs1`?
KAT2A inh: 44%[activator]

How did Cc1ccc(NC(=O)c2ccccc2F)nc1 do in these assays?
KAT2A inh: -5%

Results for Cc1cnc(NC(=O)CSc2nnc(-c3ccccc3)o2)s1 ?
KAT2A inh: 0%
